Sfp PPTase inh: qHTS Assay for Inhibitors of Bacillus subtilis Sfp phosphopantetheinyl transferase (PPTase) | Biochemical Sfp PPTase activity, qHTS | 4'-phosphopantetheinyl transferase ffp (Bacillus subtilis), Q9F4F7 | hit rate 3.5% among 310,000 | Potency, µM, for the others: max response, negative = inhibition, actives largely listed as inhibitors; active means well fitted inhibition curve with a large enough effect; inconclusive means small, poorly fitted or top-dose-only effect, or another doubt; inactive means no such curve, though single readings can be large or run the other way;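 further: the enzyme is Sfp with the accession as filed and its product quenches rhodamine fluorescence; potency means the concentration at half of the fitted maximal effect; 0% = enzyme reaction without inhibitor and -100% = no enzyme wells; top concentration of the series not given in the record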
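Sfp 15 nM + cpd, 15 min RT; start w/ rhodamine-CoA 5 uM, BHQ-2-YbbR 12.5 uM (final); 50 mM Hepes pH 7.6, 10 mM MgCl2, 0.01% NP-40, 0.01% BSA; read 525/598 nm at 0 and 30 min.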
gsp antag: qHTS for Antagonists of gsp, the Etiologic Mutation Responsible for Fibrous Dysplasia/McCune-Albright Syndrome: qHTS. gsp-mutant cells, cAMP HTRF, 30 min; control for the full effect not named in the record. Potency, µM (doses to about 76.9 µM), for the others: at the top dose activity change, negative = inhibition, actives largely listed as inhibitors. hit rate 0.4% among 340,000. AID 624288, 2012; active = falling curve of any shape with a large fitted effect; inconclusive = falling curve, mostly with a smaller effect; inactive = flat or rising curve; cell line not stated here;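 further: intracellular cAMP measured with PDE inhibitor Ro 20-1724 present during compound exposure; potency means the concentration at half of the fitted maximal effect; on the % scale 0 is the no-effect control and ±100 the full control effect; nearly all actives have a fitted effect of over 65% in size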
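Cells, 2000/well, grown 16–24 h in DMEM 10% FBS with 0.5 mg/ml G418, then compounds plus […] (300 uM addition stock), 30 min at 37C. cAMP read by HTRF (cAMP-d2 and anti-cAMP antibody-K in lysis buffer) after 30 min RT.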
ClpP mod: qHTS Assay for Activators of ClpP. ATP-dependent Clp protease proteolytic subunit (Bacillus subtilis (strain 168)), P80244. purified B. subtilis ClpP, FRET peptide cleavage, 20 min. Potency, µM (highest dose often 57.5 µM), for inactives: at the highest dose activity change, negative = active. hit rate 1.9% among 340,000. AID 651965, 2013; active = well fitted falling curve with a large enough effect; inconclusive = small, poorly fitted or top-dose-only effect; inactive = no such curve, though single readings can be large or run the other way; further: potency means the concentration at half of the fitted maximal effect; the source files actives as falling curves though it sought activators and does not explain the sign; nearly all actives have a fitted effect of over 65% in size; many hits overshoot -100%
Target sequence (P80244 whole entry, looked up): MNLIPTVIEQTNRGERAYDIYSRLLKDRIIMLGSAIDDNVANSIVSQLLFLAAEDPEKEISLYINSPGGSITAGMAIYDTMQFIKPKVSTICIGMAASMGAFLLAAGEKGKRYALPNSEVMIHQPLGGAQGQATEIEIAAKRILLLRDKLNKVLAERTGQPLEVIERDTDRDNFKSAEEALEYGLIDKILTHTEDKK
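Buffer: 100 mM Tris/HCl pH8, 100 mM KCl, 0.05% low protease BSA, 2.5% glycerol, 0.01% Tween-20. ClpP 10 microg/mL final; 20 min RT; delta FRET normalized to ADEP and DMSO controls.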
D2 agonist: Beta-Arrestin HTS for Positive Allosteric Modulators of the Human D2 Dopamine Receptor: Agonists. activation, % (no concentration beside the values). DiscoveRx PathHunter D2 beta-arrestin, luminescence, 90 min; 100% = 57 uM dopamine signal. hit rate 0.084% among 360,000. D(2) dopamine receptor (Homo sapiens), P14416. AID 624465, 2012; in the data active = activation above about 40%; inconclusive = about 15% to 40%; inactive = below about 15%; further: compound concentration not given in the record; the text of the record calls up to 30% inactive
Target sequence (P14416 whole entry, looked up): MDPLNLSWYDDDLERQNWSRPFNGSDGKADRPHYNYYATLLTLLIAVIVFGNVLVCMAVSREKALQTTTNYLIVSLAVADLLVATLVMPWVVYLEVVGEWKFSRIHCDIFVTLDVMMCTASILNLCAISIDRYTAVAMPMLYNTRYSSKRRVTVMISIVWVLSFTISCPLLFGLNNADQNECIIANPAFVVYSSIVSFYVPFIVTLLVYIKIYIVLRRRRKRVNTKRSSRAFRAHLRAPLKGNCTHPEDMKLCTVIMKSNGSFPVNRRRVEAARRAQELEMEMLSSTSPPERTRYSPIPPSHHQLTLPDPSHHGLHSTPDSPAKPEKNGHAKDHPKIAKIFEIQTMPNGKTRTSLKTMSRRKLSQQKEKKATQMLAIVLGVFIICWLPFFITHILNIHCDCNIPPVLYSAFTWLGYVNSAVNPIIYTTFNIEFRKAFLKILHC
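DiscoveRx PathHunter D2 beta-arrestin cells (2,100/well) attached overnight, then compound-stimulated 90 min at 37 C in HBSS/10 mM HEPES/0.1% Tween-20 buffer; beta-galactosidase complementation read by luminescence after 1 h at ambient temperature. Dopamine 57 uM final (EC100) as control.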
Menin-MLL FL inh: qHTS Assay for Inhibitors Targeting the Menin-MLL Interaction in MLL Related Leukemias: Competition With Fluorescein Labeled MLL-derived Peptide; Fluorescence polarization, fluorescein-MLL peptide displacement from menin; FP activity change, % at 61.4 µM; 290,000 tested, under 10 active; inconclusive = falling polarisation curve, or a change in total fluorescence; inactive = total fluorescence flat and polarisation flat or rising; no compound was filed as active; the % refers to the polarisation; negative = inhibition;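 further: % of control where 0% means no effect; inhibitors lower the polarisation; unlabelled MLL peptide was the positive control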
gsp ag: qHTS for Agonist of gsp, the Etiologic Mutation Responsible for Fibrous Dysplasia/McCune-Albright Syndrome: qHTS; gsp mutant cells, cAMP HTRF, 30 min; control for the full effect not named in the record; Potency, µM (series often up to 76.9 µM), without a hit: at the top dose activation (cAMP increase), hits mostly activators; hit rate 0.13% among 340,000; AID 624287, 2012; active = well fitted activation curve with a large enough effect; inconclusive = small, poorly fitted or top-dose-only effect, or another doubt; inactive = no such curve, though single readings can be large or run the other way; cell line not stated here;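 further: phosphodiesterase inhibitor Ro 20-1724 added with compounds to block cAMP breakdown; potency means the concentration at half of the fitted maximal effect; nearly all actives have a fitted effect of over 60% in size; about a fifth of the inactives were tested at one dose only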
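Cells stably selected in G418 were plated at 2000/well, grown 16-24 hr, then given compounds in DMSO with the PDE inhibitor […] (300 uM solution added) for 30 min at 37C; cAMP was read by HTRF.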
PINK1 expr mod: A Quantitative High throughput Screen to Identify Chemical Modulators of PINK1 Expression | PINK1 immunofluorescence, high-content cytometry, 24 h | Potency, µM (top dose mostly 76.6 µM), for the others: at the highest dose activation (PINK1 increase), most hits filed as activators | hit rate 0.2% among 410,000 | AID 624263, 2012; active = well fitted activation curve with a large enough effect; inconclusive = small, poorly fitted or top-dose-only effect; inactive = flat fitted curve, though single readings scatter; cell line not stated here;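 further: potency means the concentration at half of the fitted maximal effect; % of control where 0% means no effect; nearly all actives have a fitted effect of over 65% in size; a mitochondrial uncoupler was the plate control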
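Measures PINK1 amount and localization on or inside mitochondria by immunofluorescence. Stable cells get compounds at 5 concentrations for 24 hours before fixation and staining; CCCP controls included.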
* = called active by the depositor; ? = inconclusive; / = not tested or not shown; & = joins results of further samples; [ ] = remark or other dose.

SMILES	Sfp PPTase inh	gsp antag	ClpP mod	D2 agonist	Menin-MLL FL inh	gsp ag	PINK1 expr mod
O=C(O)/C=C/c1cn(-c2ccccc2)nc1-c1cc2ccccc2o1	-0.9%	?	/	2.5	0.8	-43.0%[15.4 µM]	0.0%
Cc1csc(=O)n1CCC(=O)OCC(=O)c1c(N)n(C)c(=O)n(C)c1=O	/	2.4%	-0.7%	-3.6	/	25.1µM*	4.1%
O=[N+]([O-])c1ccc(Cl)cc1NCCCN1CCOCC1	8.3%	22.3%	-0.4%	-7.9	-0.2	-9.1%	-0.8%
COc1ccc(N2CCN(C(=O)CCC(=O)N3CC(C)Oc4ccc(C)cc43)CC2)cc1 (stereo unspecified)	4.1%	-10.7%	-5.1%	-3.2	-1.6	-75.0%[inhibitor]	0.3%
N#C/C(=C(/O)C(Cl)c1ccccc1)c1nc2ccccc2s1 (stereo unspecified)	-5.3%	15.4%	20.6%	-5.0	3.5	?	17.5%
CCC(C)NC(=O)Cn1c(=O)n(CCCC(=O)NCc2ccccc2Cl)c(=O)c2ccccc21 (stereo unspecified)	7.6%	-5.1%	-8.7%	-1.3	-2.3	-32.4%[inhibitor]	-0.8%
Cc1nnc(SCC(=O)Nc2ccc(N(C)C)cc2)n(N)c1=O	-22.5%	-19.3%	-1.3%	4.7	-0.3	-8.6%[15.4 µM]	-0.8%
Cc1nc(NC(=O)CC(C)C)sc1-c1csc(Nc2ccc(Cl)cc2Cl)n1	-3.1%	1.2%	?	-2.8	0.9	/	1.0%
COC(=O)C1=C(C)N(CCCCCC(=O)O)C(=O)NC1c1ccccc1 (stereo unspecified)	-10.3%	-7.8%	-2.4%	-0.7	1.5	-2.6%	0.1%
CN(C)c1ccc(C=c2c3cc([N+](=O)[O-])ccc3n3c2cc(-c2ccccc2)[n+]3C)cc1	/	?	-2.7%	-3.2	/	?	-0.5%
CCNc1ncc2ncc(=O)n(Cc3cccs3)c2n1	-12.4%	/	/	/	12.7	/	0.4%
O=S(=O)(c1ccc(F)cc1)N1CCN(Cc2cc3c(cc2Br)OCCO3)CC1	/	-12.2%	-0.1%	3.4	/	-1.2%	4.9%
CC(C)Cn1c(N)c(C(=O)CSc2nnnn2-c2ccc(Cl)cc2)c(=O)n(C)c1=O	/	5.3%	-5.3%	-6.2	/	6.6%	-0.5%
CCOC(=O)C1=C2SCC(=O)N2C(N)=C(C#N)C1	-4.5%	13.2%	-5.4%	-5.7	9.3	-1.8%	-0.2%
NC(=NCCc1c[nH]c2ccccc12)NS(=O)(=O)c1cc(F)ccc1F	6.1%	-7.3%	-1.7%	1.0	1.1	5.4%	-2.8%
CCc1ccccc1N1CSC2=C(C#N)C(c3cc(OC)c(OC)cc3OC)CC(=O)N2C1 (stereo unspecified)	0.891µM*	?	1.2%	-0.8	9.2	-9.1%	3.2%
Cc1ccc(OCC(=O)N(Cc2ccc(C)o2)C2CCS(=O)(=O)C2)cc1 (stereo unspecified)	-4.7%	-1.2%	-1.4%	4.0	4.5	3.3%	-0.9%
CCC(C)(C)NC(=O)C(c1ccccc1Cl)N(C(=O)CCC(=O)Nc1cc(C)on1)C1CC1 (stereo unspecified)	-0.9%	-10.4%	-2.9%	-3.0	1.1	-5.0%[15.4 µM]	2.0%
COc1cccc(/C=N/n2c(N)c(S(=O)(=O)c3cccs3)c3nc4ccccc4nc32)c1OC	-9.3%	2.5%	2.82µM*	-4.1	-0.4	-44.4%[inhibitor]	-6.3%[38.3 µM]
O=C(Cc1ccc(F)cc1)OCn1nnc2ccccc2c1=O	11.5%	11.0%	/	-3.0	3.7	-3.0%	1.6%
COc1cc(CC(=O)OC2CCOC2=O)cc(OC)c1OC (stereo unspecified)	15.8%	3.2%	0.2%	-2.0	-0.1	1.8%	-0.1%
COc1ccccc1NC(=O)c1cccc(NC(=O)c2ccco2)c1	4.1%	-19.4%	-0.4%	3.5	3.8	20.8%	7.0%
O=c1cc(N2CCc3ccccc3C2)[nH]c(=O)n1-c1ccc(Cl)cc1	4.5%	-14.0%	0.0%	-1.4	1.9	-38.0%[inhibitor]	4.6%[38.3 µM]
O=C1CC(N2CCN(c3ccc(S(=O)(=O)N4CCOCC4)cc3)CC2)C(=O)N1Cc1ccccc1 (stereo unspecified)	9.1%	-10.7%	-24.1%	-1.0	1.1	-19.0%	-2.0%
Cc1ccc(NC(=S)Nc2ccccn2)cc1C	-4.3%	-12.4%	-0.2%	-1.3	2.2	10.0%	-0.8%
SMILES	Sfp PPTase inh	gsp antag	ClpP mod	D2 agonist	Menin-MLL FL inh	gsp ag	PINK1 expr mod
COC(=O)c1c(C)[nH]c(C(=O)C(C)OC(=O)c2cnc(C)cn2)c1C (stereo unspecified)	/	-11.7%	1.9%	1.2	/	?	2.2%
COc1ccc(C)cc1NC(=O)C1CCN(S(=O)(=O)c2c(C)noc2C)CC1	7.8%	5.2%	1.7%	-3.4	-3.0	42.7%	3.5%
CN(C)CCCOc1nn(Cc2ccccc2)c2ccccc12	0.1%&24.7%	4.9%	4.4%	-0.3	0.6	/	2.0%
CN(CC(=O)Nc1ccccc1Br)C(=O)c1cc(Cl)nc2ccccc12	/	5.1%	1.2%	3.6	/	23.0%	-0.4%
CCOc1cc(C2CC(=O)N3CN(C4CCCCC4)CSC3=C2C#N)ccc1O (stereo unspecified)	3.55µM*	-12.1%	-0.2%&-1.2%	-4.9	3.8	-15.9%	0.7%&2.6%
CC(C)(C#CCN1CCCCC1)OCCOC(c1ccccc1)c1ccccc1	-3.7%	?	0.8%	-2.6	3.1	0.3%[15.4 µM]	?
CN(CC(=O)Nc1ccc2c(c1)OCCO2)S(=O)(=O)c1ccc(F)cc1	-0.4%	8.6%	/	-3.6	-0.9	-10.5%[15.4 µM]	0.7%
COc1ccc(CNC(=O)CCCNS(=O)(=O)c2cccc3nonc23)cc1	0.7%	7.1%	-0.5%	-1.7	2.8	-1.2%	0.5%
CCOC(=O)Cc1csc(NS(=O)(=O)c2ccc3c4c(cccc24)C(=O)N3CC)n1	12.5%	-3.6%	1.1%	-4.4	0.8	?	1.6%
Nc1nnnn1/N=C/C(Br)=C/c1ccccc1	19.4%	7.8%	-2.0%	-5.6	-1.2	-19.1%[15.4 µM]	-1.5%
O=C(N1CCN(c2ccccc2F)CC1)C1(S(=O)(=O)c2ccc(Cl)cc2)CC1	25.9%	7.0%	/	2.1	1.3	-0.9%	1.0%
CC1(C)CC(NC(=O)c2c(N)no[n+]2[O-])CC(C)(C)N1	-10.4%	3.6%	4.3%	-4.2	-3.8	19.3%[15.4 µM]	1.5%
Cc1noc(C)c1C(=O)OCC(=O)NC1CC1	23.6%	-6.6%[15.4 µM]	-3.4%	-0.1	6.5	1.7%	-0.6%
CCS(=O)(=O)N1CCC(c2nc(-c3ccc(C)cc3)no2)CC1	11.2%	2.2%	0.1%	-2.4	2.2	2.0%	-3.1%[38.3 µM]
O=C(c1ccc2oc(CCCc3ccccc3)nc2c1)N1CCCC(CCCO)C1 (stereo unspecified)	1.5%	-18.5%	-2.3%	11.8	/	15.4%	-0.8%
CCC1=[N+](C)c2cccc3cccc(c23)N1C	9.9%	4.3%	/	-4.0	-2.4	?	-0.1%
Cc1ccc(-c2cc(C(=O)NCCN3CCOCC3)no2)cc1	9.1%	-5.7%	-0.1%	-0.1	3.9	-9.5%	/
O=C(Cc1ccccc1)NCC(=O)N1CCN(c2ccccc2F)CC1	3.7%	2.9%	-2.1%	-1.5	/	9.7%[15.4 µM]	0.1%
Cn1c(=O)c2c(ncn2CC(=O)OCC(=O)NNC(=O)c2ccc(Cl)cc2)n(C)c1=O	/	8.8%	0.6%	-11.5	/	18.5%	0.9%
COCCn1c(=O)[nH]c2cc(C(=O)N3CCN(c4ccc(OC)cc4)CC3)ccc2c1=O	5.7%	-10.2%	/	-3.8	-7.1	2.2%[15.4 µM]	0.1%
Cc1cc(C(F)F)n2ncc(C(=O)NCCc3ccccc3Cl)c2n1	12.4%	0.9%	-2.3%	-3.7	-1.5	13.2%	-0.3%
COc1ccc(OC)c(S(=O)(=O)Nc2cc3c4c(c2)CC(=O)N4CCC3)c1	/	-6.7%	/	2.4	/	-10.2%[15.4 µM]	3.2%
CC1CCc2nc(NC(=O)c3ccco3)sc2C1 (stereo unspecified)	-7.1%	-0.8%	-1.4%	-1.6	-0.2	0.0%	0.0%
Cc1cc(C)cc(-n2ccnc2SCC(=O)Nc2nccs2)c1	17.6%	-8.1%	-1.3%	-1.4	2.1	7.8%	4.1%
C[C@@H]1CN([C@H](C)CO)C(=O)c2c(c3ccccc3n2C)-c2ccccc2CO[C@@H]1CN(C)S(=O)(=O)c1cccs1	/	/	-1.2%	-0.8	/	-9.7%	-1.2%
SMILES	Sfp PPTase inh	gsp antag	ClpP mod	D2 agonist	Menin-MLL FL inh	gsp ag	PINK1 expr mod
O=C1Cc2ccccc2C(=O)N1OCc1ccc(Cl)cc1	-2.4%	5.0%	/	-4.9	9.3	-15.3%[15.4 µM]	-0.3%
CC(NC(=O)C12CC3(C)CC(C)(CC(C)(C3)C1)C2)C(=O)O (stereo unspecified)	11.5%	-2.1%	/	6.7	-2.8	6.4%[15.4 µM]	0.9%
O=C(c1ccccc1)N1CCN(C(=O)c2ccc3c(c2)OCCO3)CC1	-5.2%	10.8%	/	0.9	-0.2	-0.8%[15.4 µM]	0.5%
O=S(=O)(Cc1noc(-c2ccc(OC(F)(F)F)cc2)n1)c1ccc(F)cc1	2.1%	-8.2%	-3.9%	-4.4	7.2	11.2%	2.3%
CCOC(=O)c1[nH]c(C)c(C(=O)Nc2ccc(C)cc2C)c1C	-5.5%	12.5%	0.8%	5.7	-0.4	-35.6%[inhibitor]	3.4%
CCc1nc2ccc(C(=O)NCCN3CCNC3=O)cn2c1N(C)Cc1ccc(OC)cc1	/	/	-1.5%	-7.0	/	/	3.1%
CCOC(=O)c1c(C)[nH]c(C(=O)OCC(=O)N(C)c2c(N)n(Cc3ccccc3)c(=O)[nH]c2=O)c1C	/	11.6%	-0.8%	10.3	/	-11.1%	1.8%
